# Assay outcomes (PubChem)
# Hsp90 block: displaces geldanamycin probe from tumor Hsp90; P07900; NCI-N417 lysate Hsp90, Cy3B-geldanamycin FP displacement; inhibition, % at 30 µM; 64,000 tested, 0.35% active;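 active = inhibition above 50%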;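 also: 0% = tracer plus lysate wells and 100% = tracer alone without lysate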
# MKP-1 inh: inhibitors of human MKP-1 phosphatase. recombinant MKP-1, OMFP hydrolysis fluorescence. P28562. 65,000 tested, 0.15% active. inhibition, %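 (compounds tested at a single concentration somewhere between 10 and 100 µM)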;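 active = inhibition above about 50%, limit read from the data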;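 also: 0% = DMSO max control wells and 100% = wells with enzyme stopped by NaOH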
# Target sequence (P28562 whole entry, looked up): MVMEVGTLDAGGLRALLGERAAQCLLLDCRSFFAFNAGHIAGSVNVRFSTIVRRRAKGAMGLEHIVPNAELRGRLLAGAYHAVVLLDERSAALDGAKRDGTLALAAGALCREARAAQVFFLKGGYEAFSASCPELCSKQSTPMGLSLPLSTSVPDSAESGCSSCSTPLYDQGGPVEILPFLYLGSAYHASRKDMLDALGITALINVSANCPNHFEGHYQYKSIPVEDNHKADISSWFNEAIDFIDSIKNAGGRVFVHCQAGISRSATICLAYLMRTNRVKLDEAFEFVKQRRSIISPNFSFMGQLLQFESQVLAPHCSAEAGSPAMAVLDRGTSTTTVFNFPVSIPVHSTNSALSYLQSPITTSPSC
# CatG inh: cathepsin G (human) inhibition. inhibition, % at 5 µM (by protocol). 62,000 tested, 0.2% active. P08311. purified enzyme, AMC-tetrapeptide fluorescence, pooled mixtures;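 active = inhibition above 20% in each of the two mixture wells holding the compound; inactive = inhibition of 20% or less in either well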;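 also: 0% = enzyme control without mixture and 100% = blank lacking enzyme; strong numbers were not always called active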
# Target sequence (P08311 21-244 limits assumed): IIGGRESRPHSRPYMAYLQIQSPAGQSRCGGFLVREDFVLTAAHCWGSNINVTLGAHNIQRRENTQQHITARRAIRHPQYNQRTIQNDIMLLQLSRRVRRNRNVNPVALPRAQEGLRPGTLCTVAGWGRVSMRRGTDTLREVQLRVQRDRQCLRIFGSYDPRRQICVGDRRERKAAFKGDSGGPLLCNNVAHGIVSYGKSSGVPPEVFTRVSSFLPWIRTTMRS
# CatL block: inhibitors of human cathepsin L; inhibition, %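 (tested at 10 µM)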; 58,000 tested, 0.17% active; purified cathepsin L, fluorogenic substrate, fluorescence; in the data active = inhibition above about 45%;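 also: 0% = enzyme with no compound and 100% = no enzyme blank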
# Target sequence (P07711 114-288 limits assumed): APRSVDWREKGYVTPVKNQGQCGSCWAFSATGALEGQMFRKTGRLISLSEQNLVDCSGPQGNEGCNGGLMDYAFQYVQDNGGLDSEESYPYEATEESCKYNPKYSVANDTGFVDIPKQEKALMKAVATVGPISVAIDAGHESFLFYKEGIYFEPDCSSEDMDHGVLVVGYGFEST
# Target sequence (P07711 292-333 limits assumed): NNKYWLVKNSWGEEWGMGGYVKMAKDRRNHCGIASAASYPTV
# 5HT1a ag: activates the human 5-HT1a serotonin receptor; 65,000 tested, 0.56% active; CHO 5-HT1a Ga15 NFAT-bla reporter, FRET ratio; 0% basal, 100% maximal reference agonist; activation, % at 10 µM; P08908;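 active = activation above the screen-wide mean activation plus 3 SD, cut at about 19% in these data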;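 also: 0% = DMSO wells and 100% = 5-CT at EC100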
# Cdc25B inh: human M-phase inducer phosphatase 2 inhibition; inhibition, %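 (compounds tested at 10 µM final in the well)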; 65,000 tested, 0.1% active; AID 368; recombinant Cdc25B, OMFP fluorescence Ex485/Em525; in the data active = inhibition above about 50%
# Active calls of the source: *; / = not tested or not shown. Not all compounds are listed; the hit share may differ from the screen's.
1. O=C1C2ON(c3ccc(Cl)cc3)C(c3ccco3)C2C(=O)N1c1ccccc1 (stereo not given)
2. COc1ccccc1C1/C(=C(/O)c2ccccc2)C(=O)C(=O)N1CC(C)O (stereo not given)
3. Cc1ccnc(SCCn2c(N3CCCCC3)nc3c2c(=O)n(C)c(=O)n3C)n1
4. CCc1nc(-c2cc3ccc(C)cc3[nH]c2=O)no1
5. CC(C)=CCCC(C)CN1CCC(O)CC1 (stereo not given)
6. Cc1ccc(C(=O)NC2CCCCCC2)cc1N1CCCC1=O
7. O=C(CCN1CCCC1)Nc1cccc(Br)c1
8. Nc1nc(C(=O)N2CCOCC2)nn1S(=O)(=O)c1ccccc1

screen / no. | 1 | 2 | 3 | 4 | 5 | 6 | 7 | 8
Hsp90 block | 1.1 | -0.7 | -0.9 | -1.4 | -7.7 | -1.7 | -3.6 | /
MKP-1 inh | 8.0 | 15.3 | 11.2 | 30.4 | -2.0 | -6.3 | -6.9 | 2.4
CatG inh | 10.3 | 7.2 | 15.9 | -2.5 | 6.3 | 2.4 | 11.0 | -5.9
CatL block | 9.5 | 1.1 | -3.6 | -54.4 | / | 1.1 | -4.7 | -1.1
5HT1a ag | -1.0 | -3.7 | 1.2 | 1.1 | -3.2 | -4.8 | -0.6 | 1.1
Cdc25B inh | -1.2 | -1.3 | 2.9 | -3.8 | -11.7 | 16.1 | 4.6 | -11.7

9. COc1ccccc1OCc1nnc(SCC(=O)Nc2ccc(C)cc2)n1C
10. COC(=O)c1cc2ccsc2n1CC(=O)N(C)c1ccccc1
11. Cc1ccc(C)c2nc(N3CCCC3)c(C#N)cc12
12. Nc1nc(-c2ccccc2)nn1C(=O)Cc1ccccc1
13. NC1=NC2(CCN(Cc3ccccc3)CC2)n2c(nc3ccccc32)N1
14. CCNC(=O)CC1C(=O)N(c2ccc(F)cc2)C(=O)N1CCC(C)C (stereo not given)
15. O=C(Cn1cnc2sc(-c3ccccc3)cc2c1=O)N1CCOCC1
16. CCNC(=O)CC1C(=O)N(c2ccccc2)C(=O)N1CCC(C)C (stereo not given)

screen / no. | 9 | 10 | 11 | 12 | 13 | 14 | 15 | 16
Hsp90 block | 3.4 | -0.9 | -0.6 | -1.8 | 1.0 | -5.1 | -1.5 | -4.4
MKP-1 inh | -16.2 | -8.6 | 9.9 | 6.8 | -1.0 | -1.2 | -3.1 | -5.6
CatG inh | -1.7 | 8.7 | 8.2 | -12.6 | 7.9 | -2.9 | 13.4 | 9.3
CatL block | -14.8 | -4.4 | -7.1 | -0.7 | 5.2 | 4.8 | 7.8 | 5.6
5HT1a ag | -5.1 | -2.4 | 2.9 | -2.5 | -0.5 | -0.4 | -3.5 | -0.7
Cdc25B inh | 0.3 | -15.2 | -3.6 | 3.1 | 0.0 | -1.5 | 0.9 | -1.3

17. O=C(NCc1ccco1)c1cc2nc(-c3cccs3)cc(C(F)(F)F)n2n1
18. CCC(=O)Nc1ccc(C(=O)n2nc(C)cc2C)cc1
19. CC1=C(C(=O)Nc2cccnc2)C(c2ccncc2)n2nnnc2N1 (stereo not given)
20. O=C(CSC1=NCCS1)Nc1nc2c(s1)CCCC2
21. COc1ccc(Nc2ncccc2C(=O)Nc2ccccc2)cc1
22. CCOc1cc(S(=O)(=O)NCCN2CCOCC2)c(C)cc1C
23. O=c1c(/C=N/O)c(Nc2ccccc2)nc2ccccn12
24. O=c1c2ccccc2nc(N2CCN(c3ccccc3)CC2)n1Cc1ccccc1

screen / no. | 17 | 18 | 19 | 20 | 21 | 22 | 23 | 24
Hsp90 block | -2.4 | -2.5 | 0.8 | -11.0 | -2.5 | 0.2 | -4.7 | -3.2
MKP-1 inh | 11.2 | 4.3 | 31.0 | 10.2 | -17.2 | 5.2 | 0.3 | -3.2
CatG inh | -1.1 | 2.6 | 42.6 | -1.1 | 4.2 | -16.6 | -1.7 | -2.8
CatL block | -114.0 | -4.3 | -1.9 | -0.8 | 5.8 | -4.3 | 6.3 | /
5HT1a ag | 0.7 | -2.5 | -3.5 | -2.5 | -0.5 | 1.5 | 0.1 | 0.0
Cdc25B inh | -3.1 | -10.4 | -3.2 | -6.0 | -2.6 | -7.1 | -5.5 | -14.6

# Single records, from the list above. Order of values: Hsp90 block | MKP-1 inh | CatG inh | CatL block | 5HT1a ag | Cdc25B inh
# Listed for `CCNC(=O)CC1C(=O)N(c2ccc(F)cc2)C(=O)N1CCC(C)C` (stereo not given) : -5.1 | -1.2 | -2.9 | 4.8 | -0.4 | -1.5
# Listed for `CCC(=O)Nc1ccc(C(=O)n2nc(C)cc2C)cc1` : -2.5 | 4.3 | 2.6 | -4.3 | -2.5 | -10.4

# (list continues)
25. CC1(C)NC(=O)N(CNc2cc(Cl)ccc2Cl)C1=O
26. COc1ccc(C(=O)n2nnc3ccccc32)cc1Br
27. COc1ccc(S(=O)(=O)n2nc(OC(=O)c3c(-c4ccccc4Cl)noc3C)cc2N)cc1
28. CCC(=O)Nc1nc2ccccc2n1CCN(CC)CC
29. CN(c1ccc(OCc2nnc(-c3ccccc3)o2)cc1)S(=O)(=O)c1ccccc1
30. COc1ccccc1NC(=O)C1=C(C)Nc2nnnn2C1c1cccc(Br)c1 (stereo not given)
31. O=C(COc1ccccc1Cl)NCCCN1CCOCC1
32. CCN1CCN(c2nc3c(c(=O)n(C)c(=O)n3C)n2CCSc2nccc(C)n2)CC1

screen / no. | 25 | 26 | 27 | 28 | 29 | 30 | 31 | 32
Hsp90 block | 0.4 | -0.5 | -3.4 | 0.4 | -2.9 | -4.3 | -2.7 | -3.1
MKP-1 inh | -5.9 | 10.7 | 14.2 | 4.9 | 8.0 | 32.2 | -0.4 | 26.9
CatG inh | 12.1 | 20.0 | 10.5 | -5.5 | -1.5 | 11.7 | 23.5 | -5.0
CatL block | -10.0 | -3.4 | -5.5 | 9.2 | 1.7 | -3.8 | 7.5 | -2.1
5HT1a ag | -2.6 | -5.6 | 1.0 | -0.9 | -1.0 | -1.2 | -0.5 | -1.3
Cdc25B inh | -3.6 | 7.7 | -5.7 | 1.7 | 0.9 | -2.0 | -12.4 | 47.3

# Exported as tab-separated lines: part of the list above
no.	smiles	Hsp90 block	MKP-1 inh	CatG inh	CatL block	5HT1a ag	Cdc25B inh
23	O=c1c(/C=N/O)c(Nc2ccccc2)nc2ccccn12	-4.7	0.3	-1.7	6.3	0.1	-5.5
24	O=c1c2ccccc2nc(N2CCN(c3ccccc3)CC2)n1Cc1ccccc1	-3.2	-3.2	-2.8	/	0.0	-14.6
25	CC1(C)NC(=O)N(CNc2cc(Cl)ccc2Cl)C1=O	0.4	-5.9	12.1	-10.0	-2.6	-3.6
26	COc1ccc(C(=O)n2nnc3ccccc32)cc1Br	-0.5	10.7	20.0	-3.4	-5.6	7.7

# (more compounds)
33. O=C1C2ON(c3ccccc3)C(c3ccccn3)C2C(=O)N1c1ccc(Br)cc1 (stereo not given)
34. COc1ccc(/C(O)=C2/C(=O)C(=O)N(CCCC(=O)O)C2c2ccc(OC)cc2)cc1 (stereo not given)
35. CC(=O)C1=C(C)Nc2ncnn2C1c1cccc(OCc2ccccc2)c1 (stereo not given)
36. CCn1c(CNC(=O)c2ccc(OC)cc2)nnc1SCC(=O)c1ccccc1
37. Cc1cccc(N2CCN(C(=O)c3ccncc3)CC2C)c1 (stereo not given)
38. O=S(=O)(Nc1ccc2c(c1)nc1n2CCOC1)c1ccc(Cl)cc1
39. O=C1c2cccnc2C(=O)N1c1cccc(-c2nc3ccccc3o2)c1
40. COc1ccc(C2=NOC(C(=O)Nc3cc(C)nn3-c3ccccc3)C2)cc1OC (stereo not given)

screen / no. | 33 | 34 | 35 | 36 | 37 | 38 | 39 | 40
Hsp90 block | -1.4 | -1.8 | -0.8 | 0.4 | -3.8 | 0.7 | -3.4 | -3.1
MKP-1 inh | 14.3 | 1.6 | -1.4 | -4.1 | -15.5 | -23.4 | 3.7 | 2.3
CatG inh | 2.0 | 8.3 | 9.3 | 2.7 | -1.8 | 7.0 | 14.7 | 5.6
CatL block | 18.2 | 9.9 | 0.0 | -4.1 | -17.5 | -6.8 | 3.8 | /
5HT1a ag | 0.6 | -0.5 | -0.9 | -2.7 | -0.7 | -3.2 | -1.9 | -3.9
Cdc25B inh | -9.6 | -3.2 | -6.1 | -9.5 | -1.5 | 0.2 | -3.8 | -12.0

41. CSc1nnc2c(n1)[nH]c1c(C)cccc12
42. COCCN(CCOC)S(=O)(=O)c1ccc(C(=O)NCCCN2CCOCC2)cc1
43. O=C(NC1CC1)c1ccc(COc2ccc(F)cc2)o1
44. C#CCOC(=O)c1ccccc1C(=O)n1nnc2ccccc21
45. COc1ccc2cc(C#N)c(N3CCN(Cc4nnnn4CCC(C)C)CC3)nc2c1
46. CC(=O)c1cccc(N(CC(=O)N2CCOCC2)S(C)(=O)=O)c1
47. COc1ccc(C2=NOC(C(=O)Nc3ccc(C(C)=O)cc3)C2)cc1OC (stereo not given)
48. Cc1onc(-c2ccccc2)c1C(=O)n1cccn1

screen / no. | 41 | 42 | 43 | 44 | 45 | 46 | 47 | 48
Hsp90 block | 1.8 | -1.6 | -2.1 | -8.1 | -5.2 | -0.5 | -1.4 | -2.2
MKP-1 inh | -2.9 | 22.5 | -3.1 | -8.2 | 21.9 | 1.4 | 23.4 | -10.4
CatG inh | 3.4 | 8.1 | 14.8 | 38.7* | 3.4 | 0.9 | -9.3 | 10.2
CatL block | / | -2.3 | 14.4 | -4.5 | 5.3 | / | 9.6 | 6.2
5HT1a ag | -1.2 | -1.0 | -0.1 | 3.0 | -2.6 | -0.9 | -2.2 | -0.7
Cdc25B inh | -10.7 | -10.9 | -7.9 | -5.1 | 8.2 | -2.9 | 8.4 | -11.8

49. O=C(c1csc2ccccc12)n1cccn1
50. COCCCN1C(=O)C(=O)/C(=C(/O)c2ccccc2)C1c1ccc2c(c1)OCO2 (stereo not given)
51. COc1cc2c(cc1OC)-c1cc(N3CCCc4ccccc43)nc(=O)n1CC2
52. CN(C)S(=O)(=O)NCc1ccc2c(c1)OCO2
53. Clc1ccccc1-c1nc(-c2ccccc2)n[nH]1
54. O=C(NCC1CCCO1)c1ccc(N2CCCCC2)nc1 (stereo not given)

screen / no. | 49 | 50 | 51 | 52 | 53 | 54
Hsp90 block | -6.8 | -0.8 | -5.2 | -8.9 | -1.6 | -5.2
MKP-1 inh | 1.9 | 7.6 | 24.8 | 14.8 | -31.6 | 0.5
CatG inh | 52.0* | -0.5 | 8.4 | 8.2 | 8.8 | 3.6
CatL block | 8.4 | 17.9 | 12.6 | -9.8 | -7.1 | 0.1
5HT1a ag | -2.5 | 0.4 | 1.9 | 0.0 | -1.8 | -1.0
Cdc25B inh | -4.7 | -10.4 | 3.9 | 4.2 | 2.8 | 4.8

# Gathered by group, those above with a cyano group
11. Cc1ccc(C)c2nc(N3CCCC3)c(C#N)cc12
45. COc1ccc2cc(C#N)c(N3CCN(Cc4nnnn4CCC(C)C)CC3)nc2c1

screen / no. | 11 | 45
Hsp90 block | -0.6 | -5.2
MKP-1 inh | 9.9 | 21.9
CatG inh | 8.2 | 3.4
CatL block | -7.1 | 5.3
5HT1a ag | 2.9 | -2.6
Cdc25B inh | -3.6 | 8.2
